From PubChem BioAssay
HIV Env fusion = inhibitors of HIV-1 Env-driven cell-cell fusion, primary screen, HeLa-JRFL effector, CEM21 target cells, luciferase. inhibition, % at 12.3 µM. 360,000 tested, 1.1% active. AID 651610, 2012;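 active means mean replicate inhibition score of at least 50 and every replicate individually at or above 50; inconclusive means only one of the two criteria met; inactive means mean below 50 and not all replicates reaching 50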;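 further: 0% = plate neutral controls and 100% = maraviroc near 300 nM; one replicate is shown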
PABP FP inh = PABP poly(A) RNA binding inhibitors, primary screen, biochemical, fluorescence polarization, uHTS; Polyadenylate-binding protein 1 (Homo sapiens), P11940; inhibition, % at 35 µM; 290,000 tested, 1% active;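 active means 50% or more with normal probe brightness, or confirmed in later tests; inconclusive means above 50% with abnormal brightness, or retests that disagree; inactive means below 50% or failed in later tests; about a fifth of its hits are not listed in these tables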;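 further: calls also rest on retests at 20 µM and on dose response follow-up; controls were probe without protein and protein plus probe with vehicle; some compounds called inactive have numbers as strong as hits; many hits fall short of the cut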
Target sequence (P11940 whole entry, looked up): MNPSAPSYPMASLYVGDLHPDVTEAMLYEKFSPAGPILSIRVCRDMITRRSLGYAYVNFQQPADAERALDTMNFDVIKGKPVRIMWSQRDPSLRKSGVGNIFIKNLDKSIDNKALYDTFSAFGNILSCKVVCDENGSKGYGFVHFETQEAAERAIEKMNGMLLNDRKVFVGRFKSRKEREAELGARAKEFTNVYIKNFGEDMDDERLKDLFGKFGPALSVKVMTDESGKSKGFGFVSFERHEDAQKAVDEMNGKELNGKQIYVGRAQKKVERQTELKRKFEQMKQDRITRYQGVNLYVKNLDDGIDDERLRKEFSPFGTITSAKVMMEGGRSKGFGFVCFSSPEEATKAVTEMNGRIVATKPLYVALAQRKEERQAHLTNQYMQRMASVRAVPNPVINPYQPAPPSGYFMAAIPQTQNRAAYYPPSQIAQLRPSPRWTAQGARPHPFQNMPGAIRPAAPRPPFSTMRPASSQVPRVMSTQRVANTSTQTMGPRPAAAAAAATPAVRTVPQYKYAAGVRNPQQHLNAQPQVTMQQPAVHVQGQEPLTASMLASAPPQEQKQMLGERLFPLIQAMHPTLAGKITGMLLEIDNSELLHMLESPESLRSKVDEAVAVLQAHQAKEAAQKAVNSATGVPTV
MT1-MMP act inh = blockers of MT1-MMP proenzyme processing, primary screen, HT1080 RFP-PRO-GFP cells, GFP/RFP fluorescence | Matrix metalloproteinase-14 (Homo sapiens), P50281 | GFP/RFP ratio fluorescence, overnight; percent of plate control window, DMSO zero | GFP/RFP ratio change, % at 20 µM | 360,000 tested, 0.061% active | AID 651647, 2012;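 active means GFP/RFP ratio change of at least 30% with cell ATP level not reduced by more than half and red fluorescence within 50% of control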; further: strong numbers were not always called active
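Test system: HT1080 RFP-PRO-GFP cells; Benchmarks: DMSO and RFP-L50D-GFP cell wells; Timing: cells overnight before dosing, compound overnight, 37 °C, 5% CO2; Compound: one 20 µM compound dose with 1% DMSO; Read-out: GFP/RFP fluorescence ratio.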
CSC inhib = cancer stem cell viability inhibitors, primary screen, luminescence; cancer stem cell-like cells viability; inhibition, % at 7.5 µM; 300,000 tested, 1.1% active; AID 2717, 2010;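 active means mean at 75% or more and at least half the replicates too; inconclusive means mean and replicates disagree; tested in HMLE shEcad cells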;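 further: 0% = median of negative and 100% = median of positive control wells; the first replicate is given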
Rce1 inh = yeast Rce1p protease inhibitors, primary screen, biochemical, fluorescence, cell-free homogeneous; calls only; AID 2563, 2010; yeast membranes, quenched prenylated peptide cleavage fluorescence; CAAX prenyl protease 2 (Saccharomyces cerevisiae (strain ATCC 204508 / S288c)), Q03530; 290,000 tested, 0.27% active;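 active means fall in fluorescence gain of 50% or more versus controls, with final raw signal at or below 3038400; inconclusive means same 50% fall but final raw signal above 3038400; inactive means fall in fluorescence gain under 50%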;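 further: plate controls were neutral control wells for no effect and wells lacking membranes for full effect; tested at 10 µM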
Yeast UUG start = modulators of yeast start codon fidelity, primary screen, whole organism, S. cerevisiae, single point, plate reader. S. cerevisiae UUG-firefly luciferase reporter, luminescence/redox ratio. activity score, % at 18.7 µM. 350,000 tested, 0.13% active;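 active means replicate mean at a twofold rise or more, about +100% in these data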;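 further: firefly luciferase made from a UUG start codon reports start codon fidelity; reporter light over untreated wells divided by growth signal over untreated wells; some hits fall short of that in this replicate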
eIF4H inh = human eIF4H binding inhibitors, primary screen, translation initiation inhibitor project, biochemical, uHTS, fluorescence polarization; Eukaryotic translation initiation factor 4H (Homo sapiens), Q15056; eIF4H fluorescence polarization binding assay; inhibition, % at 35 µM; 290,000 tested, 0.94% active; AID 2012, 2009;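 active means 50% or more with normal probe brightness, or confirmed in later tests; inconclusive means above 50% with abnormal brightness, or retests that disagree; inactive means below 50% or failed in later tests; about a fifth of its hits are not listed in these tables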;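 further: calls also rest on retests at 20 µM and on dose response follow-up; 0% = protein and probe with vehicle and 100% = probe without protein; strong numbers were not always called active; many hits fall short of the cut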
eIF4H inh retest = second read-out of eIF4H inh, no call of its own (marks repeat the call); inhibition, %; compound at 20 µM; confirmation average;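 mean of two retest wells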
PABP FP inh retest = second read-out of PABP FP inh, no call of its own (marks repeat the call); inhibition, %; compound at 20 µM; confirmation repeats;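 mean of two retest wells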
MT1-MMP act inh RFP = second read-out of MT1-MMP act inh, no call of its own (marks repeat the call); RFP signal change, %; measured here: RFP expression control read;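 0 = vehicle wells; hits needed this value within 50% of zero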
An asterisk follows results filed as active; i = inactive; ? = inconclusive; . = no result given; + = active, no number.

SMILES	HIV Env fusion	PABP FP inh	MT1-MMP act inh	MT1-MMP act inh RFP	CSC inhib	Rce1 inh	Yeast UUG start	eIF4H inh	others
CCCc1cc(=O)oc2cc(C)cc(OCC(=O)Nc3ccc(CN4CCOCC4)cc3)c12	4	4	2	-5	-19	i	-17	0
O=C(COc1ccc([N+](=O)[O-])cc1)N/N=C/c1ccccn1	.	-2	1	7	-8	i	6	-6
COC(=O)c1ccc(CSc2nnc3c(Cl)cc(Cl)cn23)o1	.	2	0	5	-12	i	-5	1
CCOC(=O)C1CCCN1C(=O)C1(NC(C)=O)CCCC1 (stereo not drawn)	1	.	-2	6	.	.	-18	.
Cc1cccc(C)c1NC(=O)N1CCC(C(=O)c2ccc(F)cc2)CC1	8	12	1	1	-50	i	-8	0
Cc1c(S(=O)(=O)N2CCCC2)c(=O)n(C)c(=O)n1C	.	.	1	3	-8	i	-14	.
Cc1ccc(S(=O)(=O)N2CCN(C(=O)CSc3nncs3)CC2)cc1	-18	2	0	2	6	i	-8	-3
CCC(CC)c1nnc(NC(=O)CN2C(=O)C3C4C=CC(C4)C3C2=O)s1 (stereo not drawn)	.	-8	-1	-5	1	i	-9	-10
S=c1[nH]c2ccccc2n2c(=S)[nH]nc12	2	12	5	5	-10	i	-19	3
COCc1c(C)cc(C)c(/C=N/O)c1C	3	-2	6	4	-9	i	-7	-8
CCOC(=O)c1c(-c2ccc(OC)cc2)csc1NC(=O)CCN1C(=O)c2ccccc2C1=O	.	-10	3	-4	70	i	-11	-13
CCOc1ccc(OCC(=O)N2CCC3(CC2)CC(=O)c2ccccc2O3)cc1	37	.	2	-3	-25	i	-17	.
CCOC(=O)N1CCN(S(=O)(=O)c2ccc(C)c(C)c2)CC1	-16	8	-2	-2	.	i	6	-3
O=C(c1cc2ccccc2oc1=O)N1CCN(c2ncccn2)CC1	.	10	0	3	-6	i	.	-10
COCCCn1c(-c2ccco2)nc2ccccc2c1=O	-55	6	-2	0	11	i	-6	4
CC(C)Cc1nnc(NC(=O)CCC(=O)N2CCN(C3CCCC3)CC2)s1	4	12	0	5	4	i	-10	12
CC(/C=C/C=C/c1ccccc1)=N\NC(=O)c1cccnc1	-14	-11	0	5	-11	i	.	2
O=c1c2ccccc2nc(N/N=C/c2c(O)ccc3ccccc23)n1O	.	3	0	-11	112*	i	-39	14
CC(=O)Oc1c(/C=C(\C#N)C(N)=O)[nH]c2ccccc12	-24	-7	-104	9	.	i	-29	47
NNC(=O)CNC(=O)c1cccc(Br)c1	.	-2	1	-1	-9	.	4	-18
COc1ccc(C)cc1NC(=O)CCS(=O)(=O)c1ccc2c(c1)CCN2C(C)=O	1	4	.	.	.	i	19	-3
O=C(CSCc1nc2ccccc2[nH]1)N1CCN(c2ccc(F)cc2)CC1	.	9	-7	-12	-9	i	-17	6
CN(C)C(=S)Nn1c(-c2ccccc2)nc2ccccc2c1=O	-3	8	-2	-1	-8	i	.	2
O=C(CSc1n[nH]c(-c2ccccc2)n1)Nc1ccc(N2CCOCC2)cc1	-20	12	-2	-2	10	i	.	6
C=CCn1c(-c2csc(-c3ccc(OC)c(OC)c3)n2)n[nH]c1=S	-17	-14	3	1	8	i	.	-3
CC(=O)Nc1ccc(NC(=O)c2ccc(-c3ccc([N+](=O)[O-])cc3)o2)cc1	18	7	1	-2	17	i	-14	53*	eIF4H inh retest=94*;PABP FP inh retest=11
O=C(Cn1cncn1)N/N=C/c1ccc(Cl)cc1	1	8	1	1	-22	i	-14	2
CC1CCCN(c2nc(-c3cccnc3)nc3scc(-c4ccccc4)c23)C1 (stereo not drawn)	32	20	-8	-7	-3	i	.	-11
Cc1[nH]nc2c1C(CC(C)C)C(C#N)=C(N)O2 (stereo not drawn)	5	6	1	2	1	i	1	-2
COc1ccc(N2C(N)=NC(N)=NC2(C)C)cc1	-39	12	3	1	-15	.	1	-4
COc1ccc(-c2csc(Nc3ccccc3)n2)cc1	-204	8	2	-5	.	i	.	-3
C=CCOc1ccc(C(c2c(C(=O)O)[nH]c3ccccc23)c2c(C(=O)O)[nH]c3ccccc23)cc1	13	14	-1	1	-3	i	-9	83	eIF4H inh retest=49;PABP FP inh retest=19
Cc1ccc(CNC(=O)c2ccccc2NS(C)(=O)=O)cc1	.	3	-1	0	-9	i	3	-2
COc1cc(C(=O)NCC(=O)N/N=C/c2cccnc2)cc(OC)c1OC	6	-3	4	0	-17	i	-6	-7
CCOC(=O)C1C(=O)N(C(=O)c2ccc(OC)cc2)CC1c1ccccc1 (stereo not drawn)	-67	-9	-3	-2	-3	i	.	-3
CC(C)(C)NC(=O)CSc1nnc(-c2ccccn2)n1Cc1ccccc1	6	1	-1	0	-4	i	-32	-3
COc1cc(/C=N\NC(=O)CC(=O)NCCc2ccccc2)ccc1O	10	-3	6	-1	-11	i	.	-5
CC(=O)Nc1sc2c(c1C(c1cccs1)N1CCOCC1)CCCC2 (stereo not drawn)	.	6	-6	-6	-4	i	5	-1
CCOc1cc(N2CCOCC2)c(OCC)cc1NC(=O)COc1ncnc2ccccc12	-2	-4	2	6	-19	i	3	-9
Nc1c(C(=O)Nc2ccc(Cl)cc2)oc2ccccc12	-274	-17	6	6	31	i	-16	-4
Cc1ccc(OCC(=O)Nc2ccc3oc(=O)ccc3c2)cc1C	-6	11	2	-2	-2	i	-10	-1
c1csc(-c2ncc3ccccn23)c1	.	0	0	5	-7	i	-9	11
CN(C)CCC1c2ccc(Cl)cc2CCc2cccnc21 (stereo not drawn) (tested in a mixture with another compound)	8	7	-11	-2	-1	i	-9	8
O=C(CN1CCCN(S(=O)(=O)c2ccc(F)cc2)CC1)Nc1cccc(F)c1	1	2	1	-2	-35	i	25	9
Cc1ccc(NC(=O)CCNC(=O)c2ccc(Cl)cc2)nc1	-320	0	-1	0	11	i	-2	5
CC1CCCN(C2=NC(=O)/C(=C/c3cn(-c4ccccc4)nc3-c3cccc(S(=O)(=O)N(C)C)c3)S2)C1 (stereo not drawn)	.	-3	-3	-5	3	i	.	-11
O=C(O)CCCCCCCCc1cn(CC2CCCCC2)nn1	-8	12	-4	0	8	i	15	0
COc1ccccc1CNC(=O)CCNS(=O)(=O)c1ccc2c(c1)CC(C)N2C(C)=O (stereo not drawn)	-2	-6	-1	-4	3	i	-1	-4
CN(C)S(=O)(=O)c1cccc(C(=O)Nc2ccccc2Cl)c1	-6	-7	2	-1	-5	i	-13	3
CC(C)N1CC(C(=O)Nc2cc(Cl)cc(Cl)c2)CC1=O (stereo not drawn)	12	6	0	4	-2	i	-18	4
Cc1nnc(SCc2ccccc2Cl)n(N)c1=O	-14	26	-1	1	-1	i	-13	-2
COc1ccccc1C(=O)Nc1ccc2nc3n(c(=O)c2c1)CCCC3	-17	3	6	5	-1	i	15	-3
O=C(c1ccc(NS(=O)(=O)c2ccc(F)cc2)cc1)N1CCN(c2ccccc2O)CC1	.	2	0	-3	.	i	-2	-11
O=C(CN1C(=O)CSc2ncccc21)Nc1cccc(Cl)c1	1	8	-2	-1	-8	i	4	16
CCC1(CC)NC(=O)N(CC(=O)OCC(=O)NC(=O)c2ccccc2OC)C1=O	-4	.	-2	-1	-2	i	4	.
Cc1ccc(C(=O)OCC(=O)Nc2ccccc2C(F)(F)F)cc1S(=O)(=O)N1CCOCC1	.	3	-1	4	-6	i	-15	2
NC(N)=N/N=C/c1ccccc1	1	-1	6	0	.	i	.	-15
Cn1c(=O)[nH]c(=O)c2c1nc(N1CCCCCC1)n2CCCSc1nnnn1-c1ccccc1	.	11	.	.	0	i	.	-1
C#CCOc1ccccc1C(N)=O	-6	2	0	4	-7	i	-16	-9
C/C(=N\NC(=O)COc1cc(C)cc(C)c1)c1ccc(N2CCOCC2)cc1	17	3	2	0	-4	.	.	-8

Pulled by compound from the entries so far, two records:
SMILES	HIV Env fusion	PABP FP inh	MT1-MMP act inh	MT1-MMP act inh RFP	CSC inhib	Rce1 inh	Yeast UUG start	eIF4H inh	others
CC(/C=C/C=C/c1ccccc1)=N\NC(=O)c1cccnc1	-14	-11	0	5	-11	i	.	2
CC(=O)Nc1sc2c(c1C(c1cccs1)N1CCOCC1)CCCC2 (stereo not drawn)	.	6	-6	-6	-4	i	5	-1

Carrying on.
SMILES	HIV Env fusion	PABP FP inh	MT1-MMP act inh	MT1-MMP act inh RFP	CSC inhib	Rce1 inh	Yeast UUG start	eIF4H inh	others
CC(=O)c1ccc2c(c1)N(Cc1ccc3ccccc3c1)C(=O)C(C)S2 (stereo not drawn)	9	.	-5	-7	.	.	-2	.
COC(=O)c1cc(CN2CCN(c3ccccc3)CC2)ccc1O	-5	2	2	7	-4	i	6	1
Cc1c(Br)cccc1NC(=O)c1sccc1-n1cccc1	-97	-2	-1	-6	.	i	-6	-8
CCOc1cccc2cc(-c3csc(NC(=O)CCC(=O)N4CCC(C)CC4)n3)c(=O)oc12	-23	-2	-2	-4	-13	i	-6	-3
CC(NC(=O)c1cccs1)C(=O)NC1=NCCS1 (stereo not drawn)	.	0	0	2	-13	i	-5	-14
CC(Oc1ccc2c3c(c(=O)oc2c1)CCCC3)C(=O)NC1CC(C)(C)NC(C)(C)C1 (stereo not drawn)	6	.	8	7	-7	+	-19	.
COCCNC(=O)CN(C(=O)CCC(=O)Nc1nccs1)c1ccccc1OC	.	5	-3	2	-8	i	-24	2
Cc1ccc(-c2csc(NC(=O)c3cccc(C)c3)c2C(=O)O)cc1	5	.	4	1	35	i	-6	.
CCN(CC)CCN(C)Cc1nc(C(c2ccccc2)c2ccccc2)no1	1	4	-1	3	46	i	-10	7
c1ccc(CCNc2nnnn2-c2ccccc2)cc1	.	-6	1	-3	-4	i	-25	0
Cc1noc(C)c1CSc1nnc2ccccn12	-15	-3	3	0	5	i	-8	-1
CC(C)(C)c1ccc(C(=O)N2CCN(CCNC(=O)C(=O)Nc3ccc(F)cc3)CC2)cc1	5	-1	0	-19	-3	i	1	2
CN1c2ccccc2-c2nc3ccccc3n2C1c1ccccn1 (stereo not drawn)	.	0	-2	-7	-6	?	2	-1
O=C(CCc1ccc(S(=O)(=O)N2CCOCC2)cc1)Nc1nccs1	.	2	-2	4	-8	i	.	0
O=C(COC(=O)c1c(Cl)cccc1Cl)Nc1cc(Cl)ccc1Oc1ccccc1	-3	17	-3	0	40	i	.	11
CC(=O)N1CCN(c2ccc(NC(=O)c3ccc4c(c3)OCCO4)cc2Cl)CC1	-10	8	5	-5	15	i	.	4
Cc1ccc(CNC(=O)Cc2noc3ccccc23)cc1	-32	-2	4	-1	-2	i	-23	0

Not a retest: 3 of the compounds above.
SMILES	HIV Env fusion	PABP FP inh	MT1-MMP act inh	MT1-MMP act inh RFP	CSC inhib	Rce1 inh	Yeast UUG start	eIF4H inh	others
CC(=O)c1ccc2c(c1)N(Cc1ccc3ccccc3c1)C(=O)C(C)S2 (stereo not drawn)	9	.	-5	-7	.	.	-2	.
COC(=O)c1cc(CN2CCN(c3ccccc3)CC2)ccc1O	-5	2	2	7	-4	i	6	1
Cc1c(Br)cccc1NC(=O)c1sccc1-n1cccc1	-97	-2	-1	-6	.	i	-6	-8
